Screening results (PubChem BioAssay)
HCMV NEC inh = inhibitors of HCMV UL50-UL53 nuclear egress complex interaction; actives 0.15% (n = 190,000); inhibition, % (no concentration beside the values); HTRF UL50-UL53 interaction, normalized percent inhibition; AID 1918969;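 active = both replicates at 50% or more, plus weaker picks with an unusually low signal ratio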;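 also: stock transfer was 100 nL into about 20 µL; 0% = negative control wells and 100% = wells with untagged competitor protein; inactives centre near -12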
GIV-Gai inh = GIV-Galpha-i interaction inhibition. P08753. Galpha-i3/FITC-GIV peptide fluorescence polarization, 90 min; stronger effect = lower value; scaled: aluminum fluoride 0%, vehicle 100%. percent of control (FP), % (test concentration not listed). actives 0.42% (n = 210,000);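 active = replicate mean at 85% of control or lower, very high polarization wells dropped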;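 also: wells of about 15 µL received 100 nL stock; the first replicate is given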
Target sequence (P08753 whole entry, looked up): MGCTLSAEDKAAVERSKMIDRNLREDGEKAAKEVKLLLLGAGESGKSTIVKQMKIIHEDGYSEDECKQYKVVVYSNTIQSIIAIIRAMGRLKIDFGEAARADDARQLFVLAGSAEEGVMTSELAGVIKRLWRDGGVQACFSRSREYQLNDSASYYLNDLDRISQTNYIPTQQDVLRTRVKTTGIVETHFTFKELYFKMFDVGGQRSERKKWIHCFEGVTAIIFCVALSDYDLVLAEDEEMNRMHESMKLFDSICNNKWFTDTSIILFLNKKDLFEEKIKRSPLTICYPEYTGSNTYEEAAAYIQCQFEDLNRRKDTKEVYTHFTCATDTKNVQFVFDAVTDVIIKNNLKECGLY
Sa growth 42C = blocks Staphylococcus aureus growth; S. aureus RN4220 growth, OD600, 20 h, 42 °C; stronger effect = lower value; relative growth, % (test concentration not listed); actives 0.53% (n = 170,000);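 active = growth at 42 °C up to 50% and 20 or more points under that at 30 °C, or under 10% at both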;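 also: 300 nL library stock went into each well; scaled to the means of positive and negative controls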
Sa growth 42C second temp = second read-out of Sa growth 42C, no call of its own (marks repeat the call); relative growth, %; measured here: growth at 30 °C;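 optical density after 20 h as mean of two plates; 100% = untreated growth and lower means inhibition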
* hit, by the source's call; . = no result given; & = joins results of further samples.

SMILES	HCMV NEC inh	GIV-Gai inh	Sa growth 42C	Sa growth 42C second temp
CCC(=O)N1CCc2cc(Br)cc(S(=O)(=O)CCC(=O)N3CCN(c4cccc(C)c4)C(C)C3)c21 (centres undefined)	-1	98	95	87
COCCCNC(=O)Cc1ccc(-n2c(=O)c3ccccc3n(CC(=O)NC3CCCCC3)c2=O)cc1	-6	103	.	.
CCn1cc(SCC(=O)Nc2cccc(OC)c2)c2ccccc21	4	100	92	70
COc1ccccc1CN(Cc1ccco1)c1cnc(S(C)(=O)=O)nc1C(=O)Nc1cc(C)ccc1C	-30	99	95	86
O=C(COC(=O)C1(c2ccccc2)CC1)c1ccc[nH]1	-3	.	108	99
CCOC(=O)CCCn1ncn2c(cc3sc(CC)cc32)c1=O	-35	96	95	80
COc1cccc2c1[C@@H]1CN(CCCCn3c(=O)[nH]c4c(sc5ncc(-c6ccccc6)nc54)c3=O)C[C@@H]1CO2	-150	100	.	.
Cc1ccccc1NS(=O)(=O)N(C)C	-24	.	103	87
Cc1cccc(-n2ncc3c(NNC(=O)c4ccccc4Cl)ncnc32)c1	.	103	95	89
COc1ccc(N=C(C)c2c(C(F)(F)F)[nH]n(-c3nc4ccccc4s3)c2=O)cc1OC	-13	.	94	110
CCC[n+]1ccc(-c2c[nH]c3ccccc23)cc1	-62	.	145	69
COc1ccc(Cl)cc1NC(=O)c1cc(=O)c2cc(C)cc(C)c2o1	-16	103	98	90
Cc1cccc(NC(c2cccc(Cl)c2)c2ccc3cccnc3c2O)n1 (centres undefined)	-41	106	86	80
CC1CCN(Cc2c(O)ccc3c(=O)c(-c4cccc(Cl)c4)c(C(F)(F)F)oc23)CC1	-35	109	94	91
CC1CCc2ccccc2N1 (centres undefined)	-53	105	99	96
CSc1nc2sc3c(c2c(=O)n1-c1ccc(C)cc1)CCCC3	-60	103	90	81
Clc1nc2ccccc2c(N2CCCCC2)c1CNC1CC1	-5	106	96	80
O=C(Nc1ccccc1)Nc1nc(CC(=O)N2CCCCC2)cs1	-4	104	.	.
COc1ccccc1C1CC(c2c(-c3ccccc3)c3cc(Cl)ccc3[nH]c2=O)=NN1C(=O)CN1CCOCC1 (centres undefined)	-21	105	.	.
COc1ccc(OC)c(CNC(=O)c2ccc3noc(-c4ccc(C)cc4)c3c2)c1	6	98	.	.
Cc1cc(C(F)(F)F)nn1CC(=O)NN1C(=O)c2ccccc2C1=O	-30	97	107	92
Cc1cc(C)nc(SCC(=O)OCc2cc(=O)n3ccsc3n2)n1	-12	.	90	97
O=C(CSc1nnc(-c2ccccc2)n1-c1ccccc1)N/N=C/c1ccc(O)c(O)c1	-36	94	81	66
CCOC(=O)C1=NN(C(=O)c2ccc([N+](=O)[O-])cc2)C(O)(c2ccc(Cl)cc2)C1 (centres undefined)	-65	100	.	.
CC1CC(Nc2ccccc2)c2ccccc2N1C(=O)c1ccccc1F (centres undefined)	.	103	87	78

Not a retest: entries from further up.
SMILES	HCMV NEC inh	GIV-Gai inh	Sa growth 42C	Sa growth 42C second temp
CCC(=O)N1CCc2cc(Br)cc(S(=O)(=O)CCC(=O)N3CCN(c4cccc(C)c4)C(C)C3)c21 (centres undefined)	-1	98	95	87
COCCCNC(=O)Cc1ccc(-n2c(=O)c3ccccc3n(CC(=O)NC3CCCCC3)c2=O)cc1	-6	103	.	.
CCn1cc(SCC(=O)Nc2cccc(OC)c2)c2ccccc21	4	100	92	70
COc1ccccc1CN(Cc1ccco1)c1cnc(S(C)(=O)=O)nc1C(=O)Nc1cc(C)ccc1C	-30	99	95	86
O=C(COC(=O)C1(c2ccccc2)CC1)c1ccc[nH]1	-3	.	108	99
CCOC(=O)CCCn1ncn2c(cc3sc(CC)cc32)c1=O	-35	96	95	80
COc1cccc2c1[C@@H]1CN(CCCCn3c(=O)[nH]c4c(sc5ncc(-c6ccccc6)nc54)c3=O)C[C@@H]1CO2	-150	100	.	.

A second format for some results above:
> CC1CCN(Cc2c(O)ccc3c(=O)c(-c4cccc(Cl)c4)c(C(F)(F)F)oc23)CC1
  HCMV NEC inh = -35; GIV-Gai inh = 109; Sa growth 42C = 94; Sa growth 42C second temp = 91

> COc1ccccc1CN(Cc1ccco1)c1cnc(S(C)(=O)=O)nc1C(=O)Nc1cc(C)ccc1C
  HCMV NEC inh = -30; GIV-Gai inh = 99; Sa growth 42C = 95; Sa growth 42C second temp = 86

> CCOC(=O)C1=NN(C(=O)c2ccc([N+](=O)[O-])cc2)C(O)(c2ccc(Cl)cc2)C1 (centres undefined)
  HCMV NEC inh = -65; GIV-Gai inh = 100; Sa growth 42C = .; Sa growth 42C second temp = .

> CCC[n+]1ccc(-c2c[nH]c3ccccc23)cc1
  HCMV NEC inh = -62; GIV-Gai inh = .; Sa growth 42C = 145; Sa growth 42C second temp = 69

3 records drawn at random from those above, as already listed:
SMILES	HCMV NEC inh	GIV-Gai inh	Sa growth 42C	Sa growth 42C second temp
COc1ccc(N=C(C)c2c(C(F)(F)F)[nH]n(-c3nc4ccccc4s3)c2=O)cc1OC	-13	.	94	110
Cc1cccc(NC(c2cccc(Cl)c2)c2ccc3cccnc3c2O)n1 (centres undefined)	-41	106	86	80
Cc1cccc(-n2ncc3c(NNC(=O)c4ccccc4Cl)ncnc32)c1	.	103	95	89

(cont.)
SMILES	HCMV NEC inh	GIV-Gai inh	Sa growth 42C	Sa growth 42C second temp
COc1cccc(CNC(=O)c2oc3c(c2C)-c2nn(Cc4cccc(Cl)c4)cc2CC3)c1	4	100	113	95
CC(Sc1nnc(-c2cccc(Br)c2)n1C)C(=O)NC1CC1 (centres undefined)	-29	.	80	91
Cc1cc(Cl)ccc1OCC(=O)Nc1ncnc2sc3c(c12)CCCC3	0	112	.	.
CN(C)c1ccc(CNc2ccc3[nH]c(=O)[nH]c3c2)cc1	0	105	.	.
Cc1c(Cl)cccc1NC(=O)Cn1cc(C(=O)c2cccs2)c2ccccc21	7	104	101	87
CCn1ccnc1CC1COc2ccccc2O1 (centres undefined)	2&-24	105	.	.
CCC(SC1=Nc2ccccc2C2=NC(CCC(=O)NCc3ccc4c(c3)OCO4)C(=O)N12)C(=O)NC1CCCCC1 (centres undefined)	4	102	96	103
Cc1ccc(NC(=O)CN2C(=O)CC(c3ccco3)Sc3ccccc32)cc1Cl (centres undefined)	-29	105	111	87
COc1ccccc1Cn1c(SC)nc2ccccc2c1=O	2	95	87	84
O=C(Cn1c(=O)oc2cc(S(=O)(=O)NCc3ccccc3)ccc21)Nc1cccc(F)c1	-21	103	107	70
O=C(CN1C(=O)CCn2nc(-c3ccccc3)cc21)NCc1ccc(Cl)cc1	.	100	87	88
CCS(=O)(=O)N1CC(=O)N(c2ccccc2C)C(C)(C(=O)NC2CCCCC2)C1 (centres undefined)	.	108	95	94
Cn1c(CN2CCOCC2)nnc1SCC(N)=O	-8	102	101	72
CCc1ccc(COC(=O)c2nnn(-c3ccc(Br)cc3)c2C)cc1	1	100	.	.
CCOC(=O)c1cc2c(=O)n3ccccc3nc2n(C)c1=NC(=O)c1c(-c2c(F)cccc2Cl)noc1C	2	112	115	98
COc1cccc(CN2C(=O)c3ccccc3Sc3ccc(C(=O)NC(C)c4ccccc4)cc32)c1 (centres undefined)	-3	109	.	.
O=C1c2ccccc2C(=O)N1CC1CC2C=CC1C2 (centres undefined)	-20	.	82	86
CC1(C)CC(=O)C2=C(C1)Oc1ccccc1C2CC(=O)c1ccc(O)cc1 (centres undefined)	16	.	91	92
CN(Cc1ccccc1)C(=O)C1CCN(S(=O)(=O)c2ccc3c(c2)CCCC(=O)N3)CC1	-19&-10	109&102	120	80
CCc1ccccc1NC(=O)CCCOc1cc(=O)n(C)c2ccccc12	.	107	82	90
COc1ccc(S(=O)(=O)NCCc2sc(-c3cccnc3)nc2C)cc1	.	107	102	91
COn1c(=O)c(=O)n(OC)c2ccccc21	-17	113	98	95
CC1(C(=O)NC2CCCCC2)Cn2c(cc3sccc32)C(=O)N1Cc1cccnc1 (centres undefined)	4	103	.	.
CCNc1cc(N2CCC(C)CC2)c2noc3c2c1C(=O)c1ccccc1-3	-72&-82	139&189	102	78
O=c1c2ccccc2n(Cc2cccc(F)c2)c(=O)n1C1CCCC1	1	101	86	87

Next part
SMILES	HCMV NEC inh	GIV-Gai inh	Sa growth 42C	Sa growth 42C second temp
CCOc1ccc(Oc2cc3c(cc2NC(=O)C(C)C)n(C)c(=O)c(=O)n3C)cc1	-27	98	.	.
CCOC(=O)c1c(C)n(-c2ccccc2)c2c1cc(OC(=O)CC)c1ccccc12	-18	100	.	.
Cc1cc(C)c(NC(=O)CN(C)S(=O)(=O)c2ccc3c(c2)CCC(=O)N3)c(C)c1	-18	103	104	89
O=C(CCN1c2ccccc2Sc2ccccc21)NCCN1CCOCC1	-8	.	98	96
CCOc1ccc(Nc2nc3ccccc3s2)cc1	-10	.	95	92
COc1ccc(OCC2c3cc(OC)c(OC)cc3CCN2C(=O)c2c(F)cccc2F)cc1 (centres undefined)	.	106	118	98
CCc1ccc(NC(=O)COC(=O)c2ccc3c(c2)nc(C)c(=O)n3CC)cc1	11	.	92	90
COc1cccc(C(=O)Nc2cccc(C(=O)OCc3cc(=O)n4c5c(sc4n3)CCCC5)c2)c1	.	102	82	87
CCC(C(=O)Nc1ccc2c(c1)OCCO2)n1nc(-c2ccccc2)c2c(c1=O)CCCC2 (centres undefined)	14	102	.	.
CCN(CC)C(=O)c1noc2c1CCCCC2	-32	99	99	80
CCOC(=O)Nc1cc(=O)c2ccccc2o1	.	101	112	86
CCCN1C(=O)/C(=C/C=C2/Oc3ccccc3N2CCC(=O)O)N(CCO)C1=S	.	-18*	111	96
O=C(NCc1ccccc1)C1CC=CCC1C(=O)NNc1ncnc2ccccc12 (centres undefined)	-30	.	110	85
Cc1cccc(C)c1Nc1nn2c(=O)c3cc4c(cc3nc2s1)OCO4	-2	99	91	88
CCCCCCCNC(=O)C1CCN(c2cc(-c3ccc(F)cc3)ncn2)CC1	-37	106	.	.
CC(C)N(Cc1ccccc1)S(=O)(=O)c1ccc(F)cc1	14	99	87	104
CSc1cccc(N/C(=N\S(=O)(=O)c2ccccc2)NN)c1	-15	106	91	83
Fc1ccccc1-c1ccc(CNCC2CCNCC2)o1	-6	102	.	.
CCOC(=O)CN1C(=O)C(O)(c2c[nH]c3ccccc23)c2ccccc21 (centres undefined)	21	104	102	95
Cc1cc(C)cc(NC(=O)CN2C(=O)C3CCCC3=Nc3cc(C)c(C)cc32)c1 (centres undefined)	-8	104	.	.
O=C1CCCC2=C1C(c1ccc(Br)cc1)Nc1ccc(C(=O)c3ccccc3)cc1N2 (centres undefined)	-6	110	.	.
Cc1cc(C)c(S(=O)(=O)Nc2ccc3oc4c(c3c2)C(=O)CC(C)(C)C4)cc1C	-28	99	123	99
CCC(C)NC(=O)CN1C(=O)CCCc2ccccc21 (centres undefined)	6	106	.	.
COC(=O)c1cn(CC(=O)Nc2cc(C)ccc2C)c2nc(C)ccc2c1=O	-24	116	.	.
Cc1occc1-c1nnc(SCC2CCCCO2)n1-c1ccccc1 (centres undefined)	-27	.	88	89

The list continues:
SMILES	HCMV NEC inh	GIV-Gai inh	Sa growth 42C	Sa growth 42C second temp
COc1ccc(C2(CNC(=O)CCC(=O)O)CCOCC2)cc1	.	100	93	95
Cc1cc2nc3c(=O)[nH]c(=O)nc-3n(C(O)C(O)C(O)C(O)CO)c2cc1C (centres undefined)	-132	-74*	90	76
Cc1ccc2c(CSc3nnc(-c4ccccc4)o3)cc(=O)oc2c1	-40	.	91	86
CC(=O)[C@]1(O)Cc2c(O)c3c(c(O)c2[C@@H](O[C@H]2C[C@H](N)[C@H](O)[C@H](C)O2)C1)C(=O)c1ccccc1C3=O	-145	-46*	0.4*	0.1*
COC(=O)Nc1ccc2c(c1)ncn2C1CCCCC1	-4	.	108	72
COc1ccc(-c2noc(CSc3ccc(-c4cccc(Br)c4)nn3)n2)cc1OC	-19	106	.	.
C=CCOc1ccc(C2Nc3ccccc3-c3nnc(SCC)nc3O2)cc1 (centres undefined)	-20	100	.	.
O=C(Nc1ccc2[nH]c(=O)[nH]c2c1)C(F)(F)F	-2	.	91	84
O=C(CN1C(=O)CCc2cc(S(=O)(=O)N3CCOCC3)ccc21)NCc1ccc(F)cc1	.	99	86	92
CCC(Sc1ncc(S(=O)(=O)c2ccc(Cl)cc2)c(=O)[nH]1)C(=O)Nc1ccc(OC)cc1 (centres undefined)	-19	105	101	71
C/C(=N\n1c(C)nc2sc3c(c2c1=O)CCCC3)N(C)C	-12	.	95	85
CCc1nnc(SCc2cc(C)ccc2C)c2cc3sc(C)cc3n12	.	104	122	89
COc1ccc(S(=O)(=O)N(CC(=O)Nc2ccc(F)c(Cl)c2)c2ccc(C)cc2)cc1OC	.	103	96	88
O=C(O)CN1C(=O)c2cccc3c(Br)ccc1c23	-95	99	84	81
Cc1ccc(S(=O)(=O)c2cn(CC(=O)Nc3cccc(C)c3)c3cc4c(cc3c2=O)OCO4)cc1	3	109	110	72
Cc1nc(COc2ccc(C(C)(C)C)cc2)sc1C(=O)NN	-28	105	112	97
CC1=CC(=C(C#N)C#N)C=C(C)N1Cc1ccc(Cl)cc1	12	.	94	96
COc1cc(Br)cc(/C=C2/C(=O)NC(=O)N(c3ccc(C)cc3)C2=O)c1O	-17	114	.	.
